Compound activity: PubChem BioAssay, several laboratories
BJeLR viability = kills HRASV12-expressing BJeLR cells. BJeLR (HRASV12) viability, CellTiter-Glo ATP luminescence, 48 h; reference of the scale not given here. hit rate 0.17% among 300,000. AID 1554. inhibition, % (concentration not given with the values);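 active = replicate mean above 50%; inconclusive = above 50% but judged a plate artefact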;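 also: 50 nL library stock added to about 25 µL; numbers are from one replicate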
ugtP null kill = growth inhibition of S. aureus ugtP deletion strain; AID 1259309; S. aureus RN4220 ugtP deletion, OD600 growth, 16 h; some inactives read as strong as hits; hit rate 0.54% among 330,000; growth inhibition, % (no concentration beside the values);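 active = z-score under -3 and OD600 up to 0.15 on both plates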;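 also: plate controls were untreated wells for no effect and antibiotic for full effect; wells of about 80 µL received 100 nL stock; the first replicate is given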
RN4220 kill = S. aureus RN4220 growth inhibition; OD600, 16 h; inhibition, % (test concentration not listed); hit rate 0.33% among 330,000;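 active = z-score of -3 or lower and OD600 up to 0.18 on both plates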;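 also: plate controls were untreated cells for no effect and reference antibiotic for full effect; stock transfer was 100 nL into about 80 µL; one replicate is shown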
Mtb hypoxia inh = Mtb hypoxia fluorescent reporter inhibition. M. tuberculosis hypoxia-regulated fluorescent reporter, fluorescence. fluorescence inhibition, % (no concentration beside the values). hit rate 0.1% among 300,000. AID 1159583;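 active = 35 to 45% if threefold the growth effect, above 45% if 1.5-fold the growth effect; inactive = the rest, general growth blockers included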;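 also: wells of about 50 µL received 100 nL stock; 0% = vehicle wells and 100% = reference inhibitor wells; whole bacteria with a GFP reporter of the hypoxia response; strong numbers were not always called active; many hits fall short of the cut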
PrP 5UTR inh = inhibition of PrP 5' UTR reporter expression | cell-based PrP 5' UTR mRNA reporter, plate reader | inhibition, % (test concentration not listed) | hit rate 0.35% among 340,000;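 active = every replicate at 50% or more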;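 also: 0 = median of the neutral control wells; tested in H4 reporter cells; numbers are from one replicate; inactives centre near -14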
Autofluor counter = counter-screen for toxin protease inhibitors: compound fluorescence. hit rate 3.1% among 360,000. compound autofluorescence counterscreen, microsphere flow cytometry; active compounds read high. fluorescence intensity (no concentration beside the values);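 active = at least 3 SD above the mean of all compounds, about 16000 in these data; inconclusive = too few beads counted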;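 also: 100 nL of 1 mM stock went into each well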
Mtb hypoxia inh growth = second read-out of Mtb hypoxia inh, no call of its own (marks repeat the call); growth inhibition, %; measured here: M. tuberculosis growth (absorbance);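 0% = vehicle and 100% = reference antibiotic; read after six days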
* hit, by the source's call; ? = inconclusive; . = no result given.

no. | mol | Mtb hypoxia inh growth | RN4220 kill | PrP 5UTR inh | Mtb hypoxia inh | ugtP null kill | BJeLR viability | Autofluor counter
1 | Cc1ccc(S(=O)(=O)N(CC(=O)N/N=C/c2ccc(F)cc2)c2cccc3cccnc23)cc1 | . | . | -14.2 | . | . | -11.6 | 5830
2 | Cc1sc2ncnc(N3CCC(C(=O)N(CC(C)C)c4nc5ccccc5s4)CC3)c2c1C | 4.9 | 0.4 | -19.9 | -4.1 | 2.1 | -6.1 | 6329
3 | Cc1ccc(NS(=O)(=O)c2ccc(C(=O)NCc3ccccn3)cc2)cc1 | 2.0 | 1.9 | -25.9 | 5.8 | 10.3 | 0.5 | 6050
4 | CCN(C[C@H]1N[C@@](Cc2ccccc2)(C(=O)OC)[C@H]2C(=O)N(C)C(=O)[C@@H]12)C(=O)Nc1ccc(Cl)cc1 | 3.4 | 2.6 | -14.5 | 4.5 | -2.0 | . | 3514
5 | Cc1ccc(S(=O)(=O)NC(=NCc2ccccc2)c2ccc(F)cc2)cc1 | 3.4 | 4.0 | 9.3 | -2.5 | -0.8 | -7.4 | 6056
6 | O=C(O)C(c1cccs1)C1(O)CCCCC1 (configuration not stated) | 16.3 | 3.8 | -25.8 | 25.2 | 8.9 | . | 3858
7 | O=C(COc1ccccc1Cl)NNC(=O)c1ccc2c(=O)n3c(nc2c1)CCC3 | 2.5 | 0.8 | . | 8.4 | 2.6 | . | ?
8 | CCC(C)[C@H](N)c1nnc(SCC(=O)Nc2cccc(Cl)c2)o1 (some centres not stated) | 4.8 | 9.2 | -34.9 | 3.4 | 3.3 | 0.9 | ?
9 | CCCC[C@H]1COCCS(=O)(=O)N1Cc1ccccc1F | 8.9 | -7.3 | -10.7 | 11.8 | -3.6 | 6.3 | 3822
10 | Cc1ccc(/C=C2\SC(=S)N(CCCC(=O)NC3CCCC3)C2=O)cc1 | 5.4 | 2.6 | 48.2 | 10.2 | 3.1 | -4.1 | 4634
11 | CCNc1nc2c(cnn2C)c(=O)[nH]1 | 2.0 | 2.2 | -9.3 | -8.4 | 0.6 | . | 2976
12 | COc1ccc2[nH]c3c(=O)n(CCCCC(=O)NCCN4CCCC4)c(=S)[nH]c3c2c1 | 4.2 | 2.8 | -9.4 | 5.1 | 12.2 | -4.5 | 17189*
13 | CCS(=O)(=O)N1CCN(S(=O)(=O)c2ccc3ccccc3c2)CC1 | 14.4 | -0.3 | -1.9 | -0.4 | -1.6 | -10.8 | 3878
14 | COc1cccc(NC(=O)C(OC(=O)c2cnc(C)cn2)c2ccccc2)c1 (configuration not stated) | 2.4 | 0.2 | -18.5 | 6.1 | 4.9 | 0.9 | 6734
15 | CCN(CC)CCNC(=O)C1c2ccccc2C(=O)N(CCOC)C1c1ccc(F)cc1 (configuration not stated) | 6.9 | -0.2 | -23.0 | 8.4 | 2.5 | 1.0 | 6775
16 | O=S(=O)(O)c1cccc(N=Nc2c(O)ccc3ccccc23)c1 | 7.3* | 0.9 | -3.4 | 35.8* | -6.4 | -6.9 | 4722
17 | O=C(CNc1ccccc1Cl)N/N=C1\CCCc2ccccc21 | . | . | -7.4 | . | . | 0.2 | 2976
18 | Cc1cccc(-c2nc3ccccc3c(=O)n2-n2cccc2)c1 | 11.8 | -5.3 | -15.1 | 9.1 | -0.8 | 1.5 | 2837
19 | CCCOc1ccc(-c2cn3ccccc3n2)cc1[N+](=O)[O-] | -4.4 | 7.8 | -133.8 | 5.8 | -19.9 | 6.8 | 2014
20 | Cc1ccc(Cl)cc1N1CCN(C(=O)c2ccc3c(c2)CCN3S(C)(=O)=O)CC1 | . | . | 1.6 | . | . | 0.9 | 4074
21 | CC(=NC1CC1)C1=C(O)c2ccccc2C1=O | 1.9 | 5.6 | -47.3 | 1.7 | 5.3 | -2.0 | 22929*
22 | Cc1ccccc1Nc1nc(N)nc(CSc2nnc3sc4ccccc4n23)n1 | 7.9 | -1.5 | -14.1 | 3.3 | 4.0 | -0.7 | 9176
23 | Cc1ccc(C)c(-n2nnnc2SCC(=O)c2c(N)n(C)c(=O)n(C)c2=O)c1 | 2.5 | 1.0 | . | 3.8 | 5.7 | 1.1 | .
24 | O=S(=O)(c1ccc(Cl)cc1Cl)n1ccc2cccnc21 | 6.4 | 6.6 | -16.1 | 3.0 | -5.9 | 10.5 | 2071
25 | COc1ccc2oc(C(=O)OCC(=O)N3CC(C)OC(C)C3)c(C)c2c1 (configuration not stated) | -5.8 | 0.8 | -8.0 | -2.2 | 1.3 | -3.5 | 5434
26 | O=C(Nc1nnc(-c2ccccc2)s1)c1ccc(F)cc1 | -0.5 | 3.8 | -46.4 | -0.3 | -9.0 | -7.4 | 2048
27 | CCCCN(C)CCNC(=S)Nc1ccc2nc(N3CCN(CC)CC3)cc(C)c2c1 | -0.1 | -0.9 | -16.3 | 4.4 | 6.1 | -1.0 | 2900
28 | COc1ccc(-c2cc(-c3cc(F)ccc3O)[nH]n2)cc1OC | 12.6 | 1.0 | -142.6 | 5.6 | -2.7 | 3.2 | 22604*
29 | Cc1cc(F)ccc1S(=O)(=O)NCC(c1cccnc1)N1CCc2ccccc21 (configuration not stated) | 4.9 | 8.8 | -3.2 | 9.8 | -4.8 | -7.5 | 6425
30 | COc1ccc(NC(=O)c2cc(F)cc(F)c2)cc1S(=O)(=O)N1CCCCC1 | 9.4 | 3.7 | -34.6 | 8.2 | 4.9 | . | 3856
31 | COc1ccc(C=NNc2nc3ccccc3o2)cc1OC | 2.2 | 1.8 | . | 7.4 | 1.8 | . | .
32 | Cc1nnc(SCc2ccon2)n1-c1ccccc1 | 4.8 | 3.4 | -22.6 | 5.6 | 3.4 | -3.5 | 10611
33 | CC(=O)OC(Cn1nc(C)cc1C)c1ccccc1 (configuration not stated) | . | 0.6 | -11.5 | . | 3.3 | -0.9 | 4155
34 | O=C(O)c1ccccc1C=NN1CCN(C2c3ccccc3-c3ccccc32)CC1 | 8.9 | 26.3 | . | 1.2 | -4.6 | . | .
35 | CCOC(=O)c1c(-c2ccc(C)o2)csc1N | 2.4 | -8.1 | -15.0 | 3.6 | -10.5 | 7.4 | ?
36 | Cc1ccc(CSc2nnc3ccc(-c4ccncc4)nn23)cc1 | 3.4 | -0.3 | . | -8.6 | -6.3 | 7.6 | 3687
37 | CCOc1ccccc1NC(=S)N1CCN(c2cccc(C)c2C)CC1 | -6.0 | 3.9 | -16.0 | -3.3 | 1.3 | -7.3 | 4180
38 | CN(C)Cc1c(O)ccc2c(=O)c(-c3ccccc3Cl)c(C(F)(F)F)oc12 | -3.5 | 4.8 | -3.3 | -9.8 | 15.0 | 3.8 | .
39 | Fc1ccc(C(c2nnnn2C2CCCCC2)N2CCCC2)cc1 (configuration not stated) | 3.8 | 6.2 | -9.1 | 3.2 | 0.5 | -1.3 | 2392
40 | COc1ccc(S(=O)(=O)NNC(=O)Cc2csc(C)n2)cc1[N+](=O)[O-] | -1.0 | 4.6 | -0.1 | -0.3 | 12.0 | 11.2 | 4617
41 | O=C(NN=Cc1ccc2c(c1)OCO2)c1ccc2ccccc2n1 | -2.7 | 7.5 | . | -6.3 | 0.2 | . | .
42 | COc1cc(OC)cc(C(=O)Nc2ccccc2-c2nnn(CC(=O)Nc3cc(C)on3)n2)c1 | 8.6 | 1.9 | -2.4 | -6.0 | 0.8 | 8.3 | 5652
43 | Cc1ccccc1-c1nnn(CC(=O)N(C)CC(=O)Nc2ccccc2C(F)(F)F)n1 | 2.9 | 2.8 | 2.3 | 3.5 | 0.3 | 6.5 | 5899
44 | COC(=O)c1cc(NS(=O)(=O)c2ccc(N3CCCCCC3)c([N+](=O)[O-])c2)cc(C(=O)OC)c1 | 6.5 | -1.2 | -11.2 | 5.4 | 2.4 | 7.7 | 2453
45 | COc1cccc(S(=O)(=O)NC2CCN(C#N)C2)c1 (configuration not stated) | 9.0 | 7.9 | -3.5 | 9.0 | -10.8 | . | 3658
46 | COc1cc(OC)cc(C(=O)NCC(=O)NC(C)CCc2ccccc2)c1 (configuration not stated) | -7.9 | -3.7 | -30.2 | 7.1 | 9.6 | -9.3 | 3119
47 | CCCc1nc(NC2CCCCC2)c(C#N)c2c1COC(C)(C)C2 | -0.6 | -2.4 | -6.7 | -6.3 | 44.2 | -3.5 | 10450
48 | COc1ccc(/C=N/NC(=O)c2nc(Cl)c(Cl)c(N)c2Cl)cc1COc1ccc(F)cc1F | . | . | -20.5 | . | . | 1.4 | 4138
49 | O=C(Nc1cc(-c2nc3ncccc3o2)ccc1Cl)c1ccco1 | -5.6 | 6.3 | -24.2 | 2.6 | -6.9 | -6.1 | 5814
50 | CSc1ccc(/C=N/n2c(C)nnc2C)cc1 | . | . | -2.2 | . | . | 6.1 | 2027
51 | O=C(c1ccc(S(=O)(=O)Nc2cccc(C(F)(F)F)c2)cc1)N1CCN(c2ccccc2O)CC1 | -1.5 | -0.4 | -12.8 | -8.0 | -13.6 | 0.1 | 6584
52 | CC1CCC2(CC1)NC(=O)N(CC(=O)Nc1ccccc1-c1ccccc1)C2=O (configuration not stated) | 5.4 | 1.3 | -4.0 | 7.4 | 3.3 | -2.5 | 2631
53 | CC(C)CC(NC(=O)OC(C)(C)C)c1cn([C@@H](Cc2ccc(O)cc2)C(=O)N2CCN(C(=O)OC(C)(C)C)CC2)nn1 (some centres not stated) | . | . | -17.9 | . | . | -3.7 | 4131
54 | CCC(=O)Nc1c2c(nn1-c1ccc([N+](=O)[O-])cc1)CS(=O)(=O)C2 | 9.9 | 3.6 | -15.4 | 4.6 | 6.9 | 4.6 | 3762
55 | COc1ccc(-c2cc(C(F)(F)F)n3nc(C(=O)Nc4c(C)n(C)n(-c5ccccc5)c4=O)cc3n2)cc1 | 7.2 | 7.2 | -24.6 | 12.8 | 0.0 | . | 4253
56 | COc1ccc(-c2cn(Cc3ccc(C(=O)NCc4ccc(C)cc4)cc3)c(C(C)N)n2)cc1 (configuration not stated) | 18.4 | -2.0 | -14.2 | 6.6 | -14.4 | 0.5 | 3653
57 | CN1N=C(c2ccc(F)c(F)c2)CSC1=NCc1ccccc1 | 15.1 | 3.1 | -3.8 | 7.4 | 4.3 | -7.4 | 4197
58 | Cc1cc(=O)oc2cc(OCC(=O)N3CCC(O)CC3)c(Cl)cc12 | 14.1 | 2.6 | -16.8 | 5.6 | 1.5 | -2.6 | 5709
59 | NC[C@@H]1O[C@H](C23CC4CC(CC(C4)C2)C3)Cc2c1ccc(O)c2O | . | . | -31.4 | . | . | 45.1 | 5988
60 | Cc1cc(C(=O)Nc2cccc3c2OC(CN(C)S(C)(=O)=O)C(C)CN(C(C)CO)C3=O)n(C)n1 (configuration not stated) | 5.4 | 9.6 | . | 3.0 | 0.6 | . | .

(list continues)
no. | mol | Mtb hypoxia inh growth | RN4220 kill | PrP 5UTR inh | Mtb hypoxia inh | ugtP null kill | BJeLR viability | Autofluor counter
61 | O=C(NC1CCCC1)C(=O)c1c[nH]c2ccccc12 | -3.1 | 0.6 | -34.9 | -1.1 | 0.8 | -2.2 | 5480
62 | CCN1C(=O)/C(=C\C=C\c2ccccc2[N+](=O)[O-])SC1=S | 1.5 | 4.0 | -40.8 | 4.4 | 21.8 | . | 5996
63 | COCCNc1oc(/C=C/c2ccccc2OC)nc1S(=O)(=O)c1ccccc1 | -6.9 | -0.8 | -2.4 | -3.1 | 2.1 | 7.2 | 4130
64 | COc1ccc2nc(N)sc2c1 | -3.9 | 3.5 | -2.5 | -6.8 | -0.6 | -10.3 | 10530
65 | O=C(NC(=S)NCCN1CCOCC1)c1ccc(Cl)cc1Cl | . | 4.7 | -13.8 | . | 2.3 | 5.5 | 3582
66 | CCCCNC(=S)N(CCO)Cc1cc2cc3c(cc2[nH]c1=O)OCCO3 | -0.1 | 4.2 | -18.1 | 16.6 | 9.1 | 6.4 | 3900

Looked up by structure from the list above (3):
no. | mol | Mtb hypoxia inh growth | RN4220 kill | PrP 5UTR inh | Mtb hypoxia inh | ugtP null kill | BJeLR viability | Autofluor counter
52 | CC1CCC2(CC1)NC(=O)N(CC(=O)Nc1ccccc1-c1ccccc1)C2=O (configuration not stated) | 5.4 | 1.3 | -4.0 | 7.4 | 3.3 | -2.5 | 2631
66 | CCCCNC(=S)N(CCO)Cc1cc2cc3c(cc2[nH]c1=O)OCCO3 | -0.1 | 4.2 | -18.1 | 16.6 | 9.1 | 6.4 | 3900
57 | CN1N=C(c2ccc(F)c(F)c2)CSC1=NCc1ccccc1 | 15.1 | 3.1 | -3.8 | 7.4 | 4.3 | -7.4 | 4197
